Source: PubChem
FGF22 binding: binders of human FGF22 protein, primary screen, FGF22 synaptogenesis inhibitor project, biophysical, thermal shift, single point; recombinant FGF22 thermal shift, SYPRO orange fluorescence; percent of sucrose octasulfate shift, DMSO zero; calls only at 9.99 µM; 1.5% of 340,000 active;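 active = melting point raised past a set limit in the mean and every replicate; inconclusive = no clear call; three in four hits are not shown here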
Target sequence (Q9HCT0 whole entry, looked up): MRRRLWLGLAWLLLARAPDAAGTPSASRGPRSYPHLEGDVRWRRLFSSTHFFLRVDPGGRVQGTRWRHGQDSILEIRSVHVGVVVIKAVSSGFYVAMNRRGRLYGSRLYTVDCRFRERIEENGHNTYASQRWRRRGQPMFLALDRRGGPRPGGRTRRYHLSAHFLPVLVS
T cruzi repl: inhibitors of intracellular T. cruzi growth, primary screen, luminescence, NIH3T3 host cells. T. cruzi beta-gal in NIH3T3, 90 h. inhibition, % (no concentration beside the values). 1.4% of 300,000 active;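 active = mean inhibition across valid replicates above about 55%, limit read from the data; inconclusive = mean below that limit but half or more replicates reach it; inactive = mean below it, under half of replicates reach it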;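 note: signal also drops with host cell toxicity which is not excluded here; 0% = plate median of DMSO wells and 100% = zero luminescence signal; higher percent means less beta-gal luminescence so fewer parasites; stock transfer was 50 nL into about 50 µL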
rRNA inh HTS: reduced GFP signal of wild-type E. coli, primary screen, bacterial rRNA inhibitor project, GFP/RFP fluorescence, OD600, single point; E. coli WT GFP vs humanized-ribosome RFP mutants, 24 h; hits give low values; DMSO median 0, no signal -100; GFP signal change (wild-type ribosome), % (test concentration not listed); 1.6% of 350,000 active;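 active = significant combined selectivity score with lowered wild-type GFP, culture density cut under 30%, mutant RFP and density less affected; inactive = any of these conditions unmet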; note: one replicate is shown; some compounds called inactive have numbers as strong as hits
Ecoli growth: E. coli growth inhibition, primary screen, OD600. Escherichia coli growth, 23 h; hits give low values. OD600 absorbance (test concentration not listed). 0.21% of 330,000 active;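 active = OD600 absorbance below the run mean of sample wells minus 3.6 SD, in any replicate, cut at about 0.56 in these data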;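 note: stock transfer was 300 nL into about 60 µL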
A1 inh: caspase 3/7 activation in MEF A1-2A-BIM cells, primary screen, A1 inhibitor project, cell-based, luminescence, HTS; 0.066% of 330,000 active; Caspase-Glo 3/7 luminescence, 3 h; percent of clofoctol response, vehicle zero; caspase activation, % (test concentration not listed);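 active = over half of replicate activation scores above 10%, or exactly half above 10 with the replicate mean above 10; inconclusive = replicate mean below 10 yet half the replicates above 10; inactive = over half of replicates below 10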;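 note: wells of about 30 µL received 50 nL stock; many hits fall short of the cut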
UCH37 DUB inh: inhibitors of human UCH37 deubiquitinase, primary screen, biochemical, Ub-AMC cleavage, fluorescence; purified proteasome/UCH37; inhibition, % (concentration not given with the values); 0.33% of 330,000 active; AID 588478, 2011;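 active = mean of two replicates above 20%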;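 note: 0% = compound-free wells with enzyme and 100% = wells lacking proteasome; stock transfer was 100 nL into about 20 µL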
Target sequence (Q9Y5K5 whole entry, looked up): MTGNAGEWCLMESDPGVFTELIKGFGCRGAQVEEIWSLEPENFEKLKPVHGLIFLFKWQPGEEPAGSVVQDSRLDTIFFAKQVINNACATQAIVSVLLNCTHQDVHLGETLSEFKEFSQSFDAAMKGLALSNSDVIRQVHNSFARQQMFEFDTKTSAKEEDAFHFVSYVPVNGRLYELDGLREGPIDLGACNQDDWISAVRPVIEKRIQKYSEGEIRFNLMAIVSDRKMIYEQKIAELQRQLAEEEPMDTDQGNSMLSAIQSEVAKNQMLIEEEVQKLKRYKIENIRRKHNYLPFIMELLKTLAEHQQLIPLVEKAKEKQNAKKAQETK
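Material: human UCH37 enzyme supplied as purified proteasome complex. Measure: % inhibition of Ub-AMC cleavage fluorescence. Medium: pH 7.4 Tris-HCl (50 mM) with ovalbumin, ATP-MgCl2, DTT. Times: 30 min preincubation with enzyme, 25 min cleavage at room temperature. Detection: AMC fluorescence intensity at 355/460 nm.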
Beta apoptosis: inhibitors of cytokine-induced beta cell apoptosis, primary screen, luminescence | 0.8% of 300,000 active | AID 435005, 2010 | protection from apoptosis, % (test concentration not listed) | INS-1E cytokine-induced death, ATP luminescence, 48 h; percent of positive-control rescue, neutral wells zero;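 active = all replicates at 75% or more, or half of them and the mean; inconclusive = half reach 75% but not the mean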;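 note: 0% = cytokine-treated negative control wells and 100% = positive control rescue; higher means more ATP so stronger rescue from cytokine killing; wells of about 40 µL received 100 nL stock; the first replicate is given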
MLL AF4-AF9 inh: inhibitors of AF4 peptide binding to AF9, primary screen, biochemical, AlphaScreen, biotin-AF4 peptide, FLAG-AF9, single point. 0.47% of 350,000 active. AID 651704, 2012. inhibition, % at 10 µM;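 active = every replicate reaching a set inhibition limit, whatever the replicate mean, cut at about 25% in these data; inconclusive = mean inhibition reaches that limit but some replicates miss it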;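 note: 0% = plate neutral control median and 100% = total signal loss; the record names both 10 and 1 µM as test concentration; the first replicate is given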
Target sequence (P42568 whole entry, looked up): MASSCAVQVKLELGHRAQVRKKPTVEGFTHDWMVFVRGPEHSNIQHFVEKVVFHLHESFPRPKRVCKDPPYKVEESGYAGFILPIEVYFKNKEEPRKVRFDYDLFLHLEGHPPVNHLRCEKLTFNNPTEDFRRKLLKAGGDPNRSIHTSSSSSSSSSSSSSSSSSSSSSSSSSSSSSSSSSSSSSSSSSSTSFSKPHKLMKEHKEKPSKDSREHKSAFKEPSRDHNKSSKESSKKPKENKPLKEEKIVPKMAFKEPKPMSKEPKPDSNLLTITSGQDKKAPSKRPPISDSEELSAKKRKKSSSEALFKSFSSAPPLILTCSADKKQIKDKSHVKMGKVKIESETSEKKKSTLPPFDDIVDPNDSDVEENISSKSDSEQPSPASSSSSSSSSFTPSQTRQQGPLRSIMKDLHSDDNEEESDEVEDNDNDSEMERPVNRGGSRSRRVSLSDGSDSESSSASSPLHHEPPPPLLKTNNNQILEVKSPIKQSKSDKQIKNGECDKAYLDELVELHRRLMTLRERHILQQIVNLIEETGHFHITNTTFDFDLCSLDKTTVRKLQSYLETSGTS
rRNA inh HTS OD600: second read-out of rRNA inh HTS, no call of its own (marks repeat the call); OD600 change, %; measured here: OD600 growth;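 optical density of the mix in the first replicate; 0 = DMSO median and -100 = no signal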
rRNA inh HTS RFP: second read-out of rRNA inh HTS, no call of its own (marks repeat the call); RFP signal change, %; measured here: RFP humanized mutant strains;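 first replicate; 0 = DMSO median and -100 = no signal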
* marks the source's active call; other numbers are inactive results; i = inactive; ? = inconclusive; . = not tested or not shown.

#	Structure	UCH37 DUB inh	rRNA inh HTS RFP	T cruzi repl	rRNA inh HTS	FGF22 binding	A1 inh	rRNA inh HTS OD600	Ecoli growth	MLL AF4-AF9 inh	Beta apoptosis
1	Cn1cccc1C(=O)Nc1ccc(Cl)c(S(=O)(=O)N2CCCCC2)c1	-1.3	2.9	.	-6.7	i	-0.9	-9.1	0.709	10.3	0.3
2	N#Cc1c(-c2ccccc2)c(-c2ccccc2)nn(CC(=O)NNC(=O)Nc2ccccc2)c1=O	4.5	.	1.1	.	.	0.4	.	0.746	.	11.8
3	Cc1nc(NC(=O)c2ccccc2)sc1-c1csc(Nc2ccc(C(=O)O)cc2)n1	-9.0	-2.5	-4.2	-2.9	i	.	9.8	0.657	-5.5	.
4	CCN(CC)S(=O)(=O)c1ccc(OC)c(NC(=O)C(Cc2ccccc2)N2C(=O)c3ccccc3C2=O)c1 (centres undefined)	3.8	.	-6.4	.	.	-1.4	.	0.76	.	-3.1
5	COc1cccc(C(=O)Nc2nnc(-c3cccs3)o2)c1	9.8	-18.5	-24.5	-58.0	i	-5.3	-77.1	0.565	45.0*	.
6	CC1CCN(CC(=O)NC(=O)NCc2ccccc2)CC1	2.7	0.2	-0.3	5.9	i	-0.9	18.7	0.608	5.1	-0.7
7	CC(C)(C)CNC(CO)C12CC3CC(CC(C3)C1)C2 (centres undefined)	1.7	.	18.0	.	.	-0.1	.	0.749	.	-0.8
8	Cc1c(C(=O)NNC(=O)c2ccccc2O)oc2ccc(Br)cc12	-0.3	3.7	-5.2	-1.4	.	-0.7	2.7	0.715	0.1	1.1
9	CC1=CC(=O)C(C(C)=Nc2cccc(Cl)c2)C(=O)O1 (centres undefined)	3.7	3.1	.	13.6	i	.	9.7	0.681	-2.9	.
10	COCCNC(=O)COc1ncnc2ccc(Br)cc12	3.0	.	-20.2	.	.	-0.3	.	0.704	.	-7.6
11	Oc1cccc(-n2nnnc2SCc2ccccc2F)c1	0.9	-5.6	-2.8	-17.8	i	1.3	-17.9	0.646	1.1	6.4
12	COc1cccc(OCCNC(=O)CSc2ccc(C(F)(F)F)cc2[N+](=O)[O-])c1	4.8	.	8.5	.	.	1.3	.	0.679	.	-7.0
13	O=C(Nc1ccccc1)C1CCCN1S(=O)(=O)c1cccs1 (centres undefined)	4.3	-3.1	-4.6	0.0	i	1.2	1.2	0.651	-1.0	-5.1
14	COC(=O)C1CN(C(=O)COc2ccccc2C)c2ccccc2O1 (centres undefined)	2.8	-0.5	1.0	1.6	i	0.6	5.0	0.647	-3.1	-7.5
15	CN(c1ccc(OC(=O)CC2OC(=O)c3ccccc32)cc1)S(=O)(=O)c1ccccc1 (centres undefined)	3.5	-0.4	.	1.6	i	-0.1	-20.0	0.648	-1.5	-3.0
16	CCc1ccc(NC(=O)COc2coc(CN3CCc4ccccc4C3)cc2=O)cc1	2.0	1.1	5.0	-0.4	i	0.4	7.9	0.682	-3.6	.
17	COc1ccc(C(CNC(=O)C2CC(=O)N(Cc3ccc(C)cc3)C2)N(C)C)cc1 (centres undefined)	5.7	.	4.2	.	.	0.0	.	0.741	.	-4.7
18	O=C(CN(C(=O)c1csnn1)c1ccccc1C(F)(F)F)NC1CCCCC1	1.3	3.0	-0.1	-1.2	i	0.4	-4.4	0.707	-2.1	2.0
19	c1cncc(C(c2nnnn2C2CCCCC2)N2CCCCC2)c1 (centres undefined)	3.2	1.4*	3.7	-20.0*	i	-0.2	-7.3*	0.664	1.0	0.7
20	CCN(Cc1ccccc1)C(c1ccccn1)c1nnnn1C(C)(C)CC (centres undefined)	-0.7	.	11.6	.	.	0.2	.	0.701	.	.
21	COc1cc(-c2nc(-c3cccc(C)c3)no2)cc(OC)c1OC	1.4	.	6.6	.	.	-0.4	.	0.659	.	5.1
22	NC(=O)c1cc([N+](=O)[O-])ccc1N1CCN(Cc2ccccc2)CC1	7.6	0.0	-13.6	2.1	i	-0.2	7.2	0.713	-1.6	-12.5
23	COc1ccc(CNc2nc(-c3cccnc3)nn2C(C)=O)cc1	6.6	1.8	-5.5	4.8	i	0.1	5.2	0.69	-1.6	-11.4
24	CCCCC(=O)N1CCN(c2nc3ccc(Cl)cc3s2)CC1	4.9	0.2	-16.6	-8.9	i	0.2	-9.1	0.639	0.6	.
25	CCn1nc(C)c(/C=C/C(=O)Nc2ccc(C)cc2C)c1C	5.5	-7.7	9.7	-17.9	.	0.2	-22.9	0.662	3.3	0.9
26	Cc1cc(C(=O)Nc2c(F)cc(F)cc2Br)cs1	-0.7	8.4	-7.5	7.1	i	0.6	-4.7	0.707	-2.3	-4.8
27	CN(C)c1ccc(C=NCCc2ccc(S(N)(=O)=O)cc2)cc1	6.8	-1.8	-4.9	-1.9	i	0.9	2.9	0.663	3.8	-1.3
28	COc1ccc(S(=O)(=O)NC(CC(=O)NCCc2ccccc2)c2ccco2)cc1 (centres undefined)	3.5	5.9	-7.2	-4.9	.	-0.1	-4.7	0.736	.	.
29	Fc1cc2[nH]cnc2cc1Cl	1.9	-1.2	-7.8	1.6	i	0.2	-5.7	0.607	.	-0.2
30	COC(=O)CCS(=O)(=O)c1nc(-c2ccccc2)cc(C(F)(F)F)n1	4.4	.	-38.4	.	.	1.1	.	0.628	.	28.0
31	CCC(=O)N1CCc2cc(S(=O)(=O)CCC(=O)Nc3cccc(F)c3)ccc21	1.5	.	-1.1	.	.	-1.0	.	0.729	.	2.2
32	O=S(=O)(c1ccc(F)cc1)N1CCN(c2nc(-c3cccnc3)nc3ccccc23)CC1	4.7	7.3	.	-4.8	i	-0.9	-5.3	0.738	2.0	7.8
33	Cc1cc(N2C(=O)[C@@H]3[C@H](C2=O)[C@@H]2C[C@H]3C(Br)C2Br)no1 (some centres undefined)	6.7	0.7	-8.5	17.0	i	0.1	5.1	0.699	.	-8.3
34	COc1ccccc1-n1nnnc1SCC(=O)NC(=O)Cc1ccccc1	0.7	5.1	.	3.1	i	0.1	-0.8	0.639	-3.3	-4.9
35	CC12CC(c3ccccc3O1)N(C(=O)c1ccco1)C(=O)N2c1ccccc1 (centres undefined)	2.2	.	8.6	.	.	-0.3	.	0.726	.	-16.3
36	Cc1sc2ncnc(NCC3CCCO3)c2c1C (centres undefined)	1.3	-3.4	-18.3	-3.9	.	0.7	-7.5	0.72	.	4.6
37	c1ccn2cc(CSC3=NCCS3)nc2c1	2.3	-0.6	-32.7	-14.6	.	0.4	-5.4	0.642	.	-5.6
38	CCN(CC)S(=O)(=O)c1ccc(/C=C/C(=O)Nc2c(C)n(C)n(-c3ccccc3)c2=O)cc1	2.8	6.3	-4.3	18.9	.	-0.4	4.2	0.66	1.6	-14.1
39	CCOC(=O)c1cnn(-c2cc(C)c3ccccc3n2)c1N	1.9	.	-5.2	.	.	0.9	.	0.709	.	1.7
40	Cc1c(C)n2c(SCC(=O)N3CCC(C)CC3)nnc2[nH]c1=O	3.4	-0.3	-5.2	4.3	i	-0.1	12.8	0.648	0.1	-3.0
41	COc1ccc2c(c1)C(=O)[C@@H](O)[C@H](c1ccc(OC)c(Br)c1)O2	-5.5	.	-19.2	.	.	0.2	.	.	.	76.6*
42	Cn1cccc1C(=O)OCC(=O)NCCc1ccccc1	0.7	-1.7	.	-1.6	i	1.0	0.2	0.669	-0.2	1.5
43	COc1ccc(CNC(=O)CCCCCNc2nc(=S)[nH]c3ccccc23)cc1	5.7	.	6.6	.	i	0.5	.	0.645	-0.6	-5.0
44	COc1ccc(C2=NN(C(=O)CCC(=O)O)C(c3ccc(Br)cc3)C2)cc1 (centres undefined)	.	4.6	0.3	-18.6	i	1.4	-15.7	.	1.4	-2.3
45	Cc1ccc(C(=O)NNC(=O)CSc2nnc(C(C)C)n2C)cc1	4.6	-0.5	1.7	6.4	i	0.0	8.9	0.663	-0.9	0.5
46	CNC(=S)N1N=C(c2ccc(C)cc2)CC1c1ccc(Cl)cc1 (centres undefined)	4.3	.	41.3	.	.	0.0	.	0.705	.	-2.2
47	CCCN1CNC(=S)N(c2cccc(C)c2)C1	1.3	-1.4	.	15.0	i	0.2	-1.2	0.638	-3.6	0.5
48	Cc1cc(C)c(S(=O)(=O)N(C)CC(=O)NCC2CCCO2)c(C)c1 (centres undefined)	2.3	0.8	-13.4	0.9	i	.	8.3	0.684	-5.4	.
49	COC(=O)Cn1c(=O)c2c(nc(Br)n2CC(=O)OC)n(C)c1=O	-2.4	-4.0	0.5	13.0	i	0.3	-1.9	0.642	5.6	-2.9
50	CC(=O)c1c(C)[nH]c(C(=O)NNC(=O)c2ccc(C)cc2)c1C	4.3	-1.5	.	11.4	i	-0.1	12.9	0.678	-0.4	-0.7
51	CC1CCCC(NC(=O)COC(=O)c2ccc([N+](=O)[O-])o2)C1C (centres undefined)	12.7	-0.4	.	7.3	i	0.4	17.3	0.674	-3.7	-4.3
52	COc1cccc(CNc2nc(C(F)(F)F)nc3ccccc23)c1	4.4	-17.4	18.2	-55.1	i	-1.1	-78.5	0.637	-3.2	34.3
53	CCOC(=O)N1CCC(NC(=O)c2cccc3c2C(=O)N(c2ccc(OC)cc2)C3)CC1	-3.9	4.2	12.6	-9.0	i	-1.5	-11.8	0.802	-4.2	4.6
54	O=C(c1ccc(-c2ccc(Cl)cc2Cl)o1)N1CCOCC1	5.1	-5.8	3.0	-30.6	i	-1.4	-27.3	0.686	?	-0.4
55	CCOC(=O)CSc1nnc(-c2cccnc2)n1Cc1ccccc1	2.0	.	5.3	.	.	0.0	.	0.703	.	-1.4
56	NC(=O)C1(N2CCCCC2)CCN(C(=S)NC2CCCC2)CC1	0.7	.	-14.7	.	.	-0.4	.	0.674	.	-5.6
57	O=C1C2C3C=CC(C3)C2C(=O)N1Nc1ccccc1 (centres undefined)	0.3	.	2.8	.	i	-0.5	.	0.62	3.0	-2.0
58	COc1ccc(NC(=O)c2ccccn2)cc1S(=O)(=O)N1CCOCC1	0.9	-3.0	-4.4	5.0	i	1.7	9.4	0.675	-14.0	.
59	O=C(CS(=O)CC(=O)Nc1cnc2ccccc2c1)Nc1ccc(Cl)cc1 (centres undefined)	-2.2	0.3	2.3	5.1	i	1.1	3.2	0.669	-2.4	-6.3
60	O=C(N/C(=C/c1ccc(Br)cc1)C(=O)N1CCOCC1)c1ccco1	7.3	5.7	-7.8	4.6	i	0.6	7.1	0.689	-2.0	-4.4

Not all compounds are listed; the hit share may differ from the screen's.
